Vif TR-FRET: HIV-1 Vif–A3G interaction blockers – biochemical, TR-FRET, GST-Vif 1-94, biotin-A3G peptide, dose response retest, primary screen (AID 1117319). 260,000 compounds, 0.57% hits. inhibition, %; hits with a dose series show IC50 in µM. TR-FRET GST-Vif / biotin-A3G peptide binding; higher % means a stronger effect; test concentration not given here; strong numbers were not always called active;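 active means above the screen mean plus three standard deviations and confirmed in dose response; inconclusive means results disagree or hit not tested in dose response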;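 further: Vif residues 1-94 fused to GST binding biotinylated APOBEC3G peptide 110-148; 0% = full assay without inhibitor and 100% = GST in place of GST-Vif; retest series ran down from 100 µM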
T cruzi repl: blocks replication of Trypanosoma cruzi. T. cruzi beta-gal in NIH3T3, luminescence, 90 h. inhibition, % (concentration not given with the values). 300,000 compounds, 1.4% hits. AID 1885;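 active means mean inhibition across valid replicates above about 55%, limit read from the data; inconclusive means mean below that limit but half or more replicates reach it; inactive means mean below it, under half of replicates reach it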;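 further: signal also drops with host cell toxicity which is not excluded here; 0% = plate median of DMSO wells and 100% = zero luminescence signal; higher percent means less beta-gal luminescence so fewer parasites; stock transfer was 50 nL into about 50 µL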
Beta cell apopt: beta cell apoptosis inhibition; INS-1E cytokine-induced death, ATP luminescence, 48 h; percent of positive-control rescue, neutral wells zero; protection from apoptosis, % (no concentration beside the values); 300,000 compounds, 0.8% hits; AID 435005;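 active means all replicates at 75% or more, or half of them and the mean; inconclusive means half reach 75% but not the mean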;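 further: 0% = cytokine-treated negative control wells and 100% = positive control rescue; higher means more ATP so stronger rescue from cytokine killing; wells of about 40 µL received 100 nL stock; the first replicate is given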
AF4-AF9 inh: MLL-AF4/AF9 protein interaction inhibition; P42568; AlphaScreen, biotin-AF4 peptide binding to FLAG-AF9; inhibition, % at 10 µM; 350,000 compounds, 0.47% hits;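 active means every replicate reaching a set inhibition limit, whatever the replicate mean, cut at about 25% in these data; inconclusive means mean inhibition reaches that limit but some replicates miss it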;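 further: 0% = plate neutral control median and 100% = total signal loss; the record names both 10 and 1 µM as test concentration; the first replicate is given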
Target sequence (P42568 whole entry, looked up): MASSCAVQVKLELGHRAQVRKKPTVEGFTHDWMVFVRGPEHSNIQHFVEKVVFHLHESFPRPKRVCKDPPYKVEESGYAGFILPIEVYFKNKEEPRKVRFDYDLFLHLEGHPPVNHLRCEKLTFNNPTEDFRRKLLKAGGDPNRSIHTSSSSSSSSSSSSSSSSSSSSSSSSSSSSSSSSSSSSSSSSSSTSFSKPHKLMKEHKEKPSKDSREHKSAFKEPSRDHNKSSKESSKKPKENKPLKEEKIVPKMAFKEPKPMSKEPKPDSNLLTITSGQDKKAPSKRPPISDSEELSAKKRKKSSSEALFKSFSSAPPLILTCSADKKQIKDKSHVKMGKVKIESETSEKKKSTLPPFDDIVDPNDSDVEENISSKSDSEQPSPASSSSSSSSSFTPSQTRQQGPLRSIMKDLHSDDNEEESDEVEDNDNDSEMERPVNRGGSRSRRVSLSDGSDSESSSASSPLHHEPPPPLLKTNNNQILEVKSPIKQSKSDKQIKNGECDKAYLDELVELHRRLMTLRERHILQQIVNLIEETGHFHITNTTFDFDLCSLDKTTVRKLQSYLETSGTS
Bfl-1 A1 inh: inhibitors of the anti-apoptotic protein A1, read as caspase activation | MEF A1-2A-BIM cells, Caspase-Glo 3/7 luminescence, 3 h; percent of clofoctol response, vehicle zero | caspase activation, % (no concentration beside the values) | 330,000 compounds, 0.066% hits | AID 2462;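 active means over half of replicate activation scores above 10%, or exactly half above 10 with the replicate mean above 10; inconclusive means replicate mean below 10 yet half the replicates above 10; inactive means over half of replicates below 10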;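 further: wells of about 30 µL received 50 nL stock; many hits fall short of the cut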
RanGTP-Impb inh: disruptors of Ran-importin-beta complex formation – biochemical, FRET, CFP-Ran, YFP-importin-beta, homogeneous, primary screen; cell-free CFP-Ran/YFP-importin-beta FRET ratio; inhibition, % (no concentration beside the values); 300,000 compounds, 1.1% hits;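 active means most replicates above 15%; inconclusive means exactly half above 15%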;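 further: 0% = DMSO wells and 100% = Ran loaded with GDP instead of GTP; wells of about 40 µL received 100 nL stock; the first replicate is given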
rRNA inh HTS: inhibitors of bacterial rRNA selective over humanized ribosomes; E. coli WT GFP vs humanized-ribosome RFP mutants, fluorescence, 24 h; hits give low values; DMSO median 0, no signal -100; GFP signal change (wild-type ribosome), % (no concentration beside the values); 350,000 compounds, 1.6% hits; AID 720706;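 active means significant combined selectivity score with lowered wild-type GFP, culture density cut under 30%, mutant RFP and density less affected; inactive means any of these conditions unmet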; further: one replicate is shown; some compounds called inactive have numbers as strong as hits
Calb FLC: C. albicans growth modulation with fluconazole | C. albicans CaCi-2 (fluconazole-resistant clinical isolate) + fluconazole, Alamar Blue growth, 48 h | growth inhibition, % (test concentration not listed) | 300,000 compounds, 0.57% hits | AID 1979;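 active means most replicates above 75%; inconclusive means exactly half above 75%; inactive means most below 75%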;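 further: all wells also contain fluconazole at 8 µg/ml as a sub-toxic cotreatment; 0% = median of DMSO wells and 100% = median of geldanamycin control wells; wells of about 8 µL received 7.5 nL stock; the first replicate is given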
rRNA inh HTS OD600: second read-out of rRNA inh HTS, no call of its own (marks repeat the call); OD600 change, %; measured here: OD600 growth;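 optical density of the mix in the first replicate; 0 = DMSO median and -100 = no signal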
rRNA inh HTS RFP: second read-out of rRNA inh HTS, no call of its own (marks repeat the call); RFP signal change, %; measured here: RFP humanized mutant strains;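 first replicate; 0 = DMSO median and -100 = no signal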
Numbers without * were called inactive; ? = inconclusive; · = not tested or not shown; & = joins results of further samples. Not all compounds are listed (hit frequency here may not be typical).

structure	Vif TR-FRET	T cruzi repl	Beta cell apopt	AF4-AF9 inh	Bfl-1 A1 inh	RanGTP-Impb inh	rRNA inh HTS	rRNA inh HTS OD600	rRNA inh HTS RFP	Calb FLC
CN(c1ccc(OCC(=O)NC2CCCC2)cc1)S(=O)(=O)c1cccs1	-7.3%	19.9	-9.0	·	-0.1	-3.7	·	·	·	6.9
Cc1ccc(Nc2cccccc2=O)cc1	?	-15.0	·	·	-3.6	13.5	·	·	·	-12.1
O=S(=O)(Nc1nc2ccccc2s1)c1cc(F)ccc1F	·	7.4	2.3	-4.5	-0.6	0.8	17.3	-1.1	2.7	33.0
O=C(Nc1cccc2cccc(NC(=O)c3ccco3)c12)c1ccco1	?	-10.8	-6.6	·	1.0	-3.4	·	·	·	23.5
NS(=O)(=O)c1ccc(CCNC(=O)C2CCN(c3ncnc4c3nc3n4CCCCC3)CC2)cc1	·	3.2	-5.3	-2.1	1.0	2.6	-4.4	4.2	-3.0	5.7
Cc1nn(-c2cc(C(F)(F)F)ccn2)c(=O)o1	-0.3%	0.5	-6.2	-2.0	1.7	-0.8	·	·	·	-0.5
CCCCN(C)CCC(=O)Nc1ccc(OC)cc1OC	14.0%	-2.4	-3.3	·	-0.3	1.8	·	·	·	-14.2
Cc1ccc(CNc2nc(C)nc3sc4c(c23)CCC4)cc1	-3.5%	-25.0	70.9	·	0.1	25.5*	·	·	·	22.9
Cc1ccc(NC(=S)N2CCCN(Cc3ccc(F)cc3)C2)c(C)c1	24.3%	12.0	0.1	0.8	-0.6	-1.5	5.5	4.5	-5.8	-5.2
O=C(CN1CCN(c2ccccc2F)CC1)Nc1ccccc1F	1.5%	1.0	1.2	·	0.1	0.1	·	·	·	0.2

(next part)
structure	Vif TR-FRET	T cruzi repl	Beta cell apopt	AF4-AF9 inh	Bfl-1 A1 inh	RanGTP-Impb inh	rRNA inh HTS	rRNA inh HTS OD600	rRNA inh HTS RFP	Calb FLC
Cc1[nH]c2ccc3ncccc3c2c1C	·	5.5	-1.6	·	-0.5	4.1	·	·	·	3.2
Cc1ccc(Cn2c(CCC(=O)O)nc3ncccc3c2=O)cc1	5.5%	-5.8	-6.8	-2.3	0.7	?	7.1	16.0	-1.9	0.0
Cc1cccc(C)c1NC(=O)CN1C(=O)CCSc2ccc(S(=O)(=O)N3CCCC3)cc21	-0.5%	5.7	-8.3	-1.1	-2.4	-0.8	18.4	11.5	2.0	10.7
[N-]=[N+]=CC(=O)CCCN1C(=O)c2ccccc2C1=O	4.2%	-9.2	·	·	-1.0	0.6	·	·	·	1.1
Cc1ccccc1NS(=O)(=O)c1ccc(OCC(=O)N2CCCCC2)cc1	15.8%	14.7	-2.2	-4.3	0.1	?	-8.5	-10.8	-8.2	-20.7
CCc1c(C(=O)NNC(=O)Nc2ccc3c(c2)OCO3)csc1C	·	1.8	-0.8	1.1	0.6	0.6	-2.5	5.6	2.3	-7.1
CCCCNC(=O)CCn1c(=O)c2ccccc2n(Cc2ccc(Cl)cc2)c1=O	·	8.0	-2.1	0.0	-0.1	0.1	6.9	23.1	-0.6	9.8
CNC(=O)/C(C#N)=C1/SC(Cc2ccc(F)cc2)C(=O)N1c1ccccc1 (stereo unspecified)	1.6%	-6.8	-5.5	-1.8	-1.0	-1.5	1.6	5.3	2.9	7.0
COc1ccc(NC(=O)CSc2nnc(Cc3cccs3)n2-c2ccc(C)cc2)cc1	7.0%	6.1	-7.6	-0.9	1.3	-1.4	-40.9	-42.4	5.8	-3.9
N[C@@H](Cc1ccc(O)cc1)c1nnc([C@H](CCC(=O)O)NC(=O)C2CCNCC2)o1	-7.8%	-8.7	2.7	·	0.5	5.5	16.6	17.5	1.4	-9.3

Continued.
structure	Vif TR-FRET	T cruzi repl	Beta cell apopt	AF4-AF9 inh	Bfl-1 A1 inh	RanGTP-Impb inh	rRNA inh HTS	rRNA inh HTS OD600	rRNA inh HTS RFP	Calb FLC
O=C(c1ccccc1)c1nc[nH]c1C(=O)Nc1ccccn1	-1.9%	-1.8	0.8	·	0.2	-2.4	·	·	·	-18.8
Cc1ccccc1CN1CCN(Cc2ccc3cccc(F)c3n2)CC1CCO (stereo unspecified)	·	7.8	-3.6	1.8	-0.7	1.4	-0.8	-3.3	-0.4	1.7
CCOC(=O)CC1=Nc2ccccc2NC(=O)C1	-1.9%	-1.7	-5.5	·	-2.2	·	·	·	·	25.3
CCc1c(C)sc(NC(=O)Cc2ccccc2OC)c1C(=O)N1CCOCC1	·	8.3	·	1.6	0.9	3.4	5.7	2.2	0.5	-3.2
CCOC(=O)CN1N=C(/C=C/c2ccccc2)CCC1=O	-11.9%	-2.9	-2.9	·	1.9	0.2	·	·	·	-11.6
COC(=O)c1ccc(-c2c(-c3ccccc3)ncc3cc(OC)c(OC)cc23)cc1	·	·	4.4	-2.2	0.9	·	10.8	-3.2	-2.8	·
O=[N+]([O-])c1cnc(Sc2ccncn2)s1	·	18.8	108.8*	-2.1	-3.4	2.3	5.3	6.2	1.7	1.9
CC(=O)Oc1ccc2cc(-c3nc4ccccc4n3C)c(=O)oc2c1	-6.3%	-0.7	-5.9	·	-0.2	147.1*	·	·	·	15.1
Cc1cc(C(=O)CN2C(=O)C(=O)N(Cc3ccccc3)C2=O)c(C)n1-c1ccccc1F	-7.9%	-19.7	3.7	-2.0	0.0	2.6	-20.8	-22.4	33.7	13.5
COc1ccc(S(=O)(=O)Nc2cccc3c2O[C@H](CN(C)Cc2ccc(Oc4ccccc4)cc2)[C@@H](C)CN([C@H](C)CO)C3=O)cc1	·	·	-14.6	3.4&5.0	0.8	·	5.5&13.8	16.0&9.7	1.9&-2.2	·

Four entries from above, ordered by count of non-hydrogen atoms, ascending:
structure	Vif TR-FRET	T cruzi repl	Beta cell apopt	AF4-AF9 inh	Bfl-1 A1 inh	RanGTP-Impb inh	rRNA inh HTS	rRNA inh HTS OD600	rRNA inh HTS RFP	Calb FLC
O=C(c1ccccc1)c1nc[nH]c1C(=O)Nc1ccccn1	-1.9%	-1.8	0.8	·	0.2	-2.4	·	·	·	-18.8
Cc1ccccc1CN1CCN(Cc2ccc3cccc(F)c3n2)CC1CCO (stereo unspecified)	·	7.8	-3.6	1.8	-0.7	1.4	-0.8	-3.3	-0.4	1.7
Cc1cc(C(=O)CN2C(=O)C(=O)N(Cc3ccccc3)C2=O)c(C)n1-c1ccccc1F	-7.9%	-19.7	3.7	-2.0	0.0	2.6	-20.8	-22.4	33.7	13.5
COc1ccc(S(=O)(=O)Nc2cccc3c2O[C@H](CN(C)Cc2ccc(Oc4ccccc4)cc2)[C@@H](C)CN([C@H](C)CO)C3=O)cc1	·	·	-14.6	3.4&5.0	0.8	·	5.5&13.8	16.0&9.7	1.9&-2.2	·

The results go on:
structure	Vif TR-FRET	T cruzi repl	Beta cell apopt	AF4-AF9 inh	Bfl-1 A1 inh	RanGTP-Impb inh	rRNA inh HTS	rRNA inh HTS OD600	rRNA inh HTS RFP	Calb FLC
COc1cccc(C(=O)NCc2ccc(-c3nc4ccccc4s3)cc2)c1	?	8.3	-5.5	·	-0.7	4.4	·	·	·	7.1
O=C1C(=O)N(CCCN2CCOCC2)C(c2ccc([N+](=O)[O-])cc2)/C1=C(\O)c1ccc2c(c1)OCCO2 (stereo unspecified)	16.4%	1.6	2.8	-0.6	-1.2	3.0	6.5	-0.3	0.5	-9.8
Oc1ccccc1C(=S)N1CCCCCC1	18.3%	-15.7	-1.6	·	0.0	0.3	·	·	·	-6.7
CC(C)Cc1nc(N2CCOCC2)c(C#N)c2c1COC(C)(C)C2	-3.7%	0.5	-7.5	·	-0.1	-2.9	·	·	·	-9.6
Cc1cccc(NC(=S)N(CCN(C)C)C(C)c2cccnc2)c1 (stereo unspecified)	15.0%	23.3	1.8	-0.5	0.0	1.1	9.3	5.2	-2.3	-2.8
OCCCNCc1ccc(-c2ccccc2)cc1	10.3%	9.3	6.4	-0.6	0.7	2.0	33.8	18.7	6.3	-0.5
CCOC(=O)C(NC(=O)c1ccccc1)(Nc1nnc(C)s1)C(F)(F)F (stereo unspecified)	-2.6%	-14.0	0.0	·	1.9	6.2	·	·	·	-3.6
Cc1nc2ccccc2n1CC(=O)N/N=C\c1ccccn1	5.8%	6.0	-3.6	·	0.3	-1.7	·	·	·	-14.5
Cc1cc(C)c(C(=O)C(C)OC(=O)Cn2cnc3c2c(=O)n(C)c(=O)n3C)cc1C (stereo unspecified)	4.8%	-15.7	-6.9	-13.6	-0.4	2.1	2.6	7.9	2.4	0.5
CCC(Sc1nc(C)cc(C)n1)C(=O)Nc1cc(C)on1 (stereo unspecified)	-8.6%	-4.9	1.9	-14.7	0.2	1.9	6.4	2.6	3.4	-23.7

Continuation:
structure	Vif TR-FRET	T cruzi repl	Beta cell apopt	AF4-AF9 inh	Bfl-1 A1 inh	RanGTP-Impb inh	rRNA inh HTS	rRNA inh HTS OD600	rRNA inh HTS RFP	Calb FLC
CC1=NN(c2ccccc2)C(=O)/C1=C\c1sccc1C	1.8%	-7.8	-1.7	3.3	0.6	2.8	19.4	4.1	1.6	-3.9
Cc1cc(=O)oc2cc(OC(C)C(=O)NC3CCN(Cc4ccccc4)CC3)ccc12 (stereo unspecified)	·	34.9	1.2	2.0	-0.9	-3.2	9.0	0.1	2.8	-11.3
Cc1ccccc1CSc1nnc(-c2ccccc2)c(=O)[nH]1	-12.8%	-17.5	-3.7	-2.2	0.0	?	-3.5	-9.2	-4.3	0.2
CC1CC(C)(C)N2C(=O)C(=C(C#N)C#N)c3cccc1c32 (stereo unspecified)	-0.1%	4.4	·	-5.8	1.0	2.8	·	·	·	3.3
CCN(CC)c1ccc(C(=O)N/N=C/c2ccc(N3CCOCC3)cc2)cc1	-6.5%	2.3	2.8	-1.4	0.0	-0.7	11.2	15.7	4.0	-4.6
CCOc1ccccc1CN1CCNC(=O)C1CC(=O)N(C)Cc1cnccn1 (stereo unspecified)	·	-7.8	-5.0	-0.4	0.1	2.8	13.6	12.1	-0.6	0.9
COc1ccc(CCNC(=O)c2cc(-c3ccncc3)nc3c(Cl)cccc23)cc1OC	-17.4%	33.3	1.7	-1.3	1.0	4.5	3.0	10.8	2.9	5.6
CCC(=O)Nc1nnc(SCC(=O)Nc2ccc(F)cc2)s1	29.1%	-6.3	1.8	·	0.3	4.3	·	·	·	0.5
CC(C)CNC(=O)CN(c1cccc(Cl)c1)S(C)(=O)=O	-7.7%	-2.4	-2.9	-1.5	-0.2	4.6	12.0	9.4	0.6	1.9
CCC(Oc1ccccc1)C(=O)OCC(=O)N(CC)c1c(N)n(Cc2ccccc2)c(=O)[nH]c1=O (stereo unspecified)	4.7%	1.5	1.8	-0.4	-0.3	-1.7	1.0	2.4	-0.5	-2.3
O=C(Nc1nccs1)c1ccc(COc2ccc(F)cc2)o1	1.4%	-16.8	1.2	·	-0.4	0.9	·	·	·	5.6
